# Bioassay records from PubChem BioAssay.
# GALK inh: qHTS Assay for Inhibitors of Human Galactokinase (GALK); Purified GALK, Kinase-Glo residual ATP luminescence; actives 0.007% (n = 270,000); Potency, µM (series often up to 57.5 µM), for the others: top-dose activity change, negative = inhibition, actives largely listed as inhibitors; P51570; AID 1868, 2009; further: potency means the concentration at half of the fitted maximal effect; on the % scale 0 is the no-effect control and ±100 the full control effect
#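 ATP-depletion format; final 35 uM ATP, 100 uM D-galactose, 5 nM enzyme; pH 8.0 HEPES/Mg2+ buffer; 60 min RT; luminescence read 10 min after detection reagent.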
# Menin MLL FP TR: qHTS Assay for Inhibitors Targeting the Menin-MLL Interaction in MLL Related Leukemias: Competition With Texas Red Labeled MLL-derived Mutant Peptide | O00255 | Menin + Texas Red MLL mutant peptide, fluorescence polarization | Potency, µM (doses to about 61.6 µM), inactives show top-dose FP activity change, negative = inhibition, most hits filed as inhibitors | actives 0.23% (n = 270,000) | AID 1768, 2009; active means well fitted inhibition curve with a large enough effect in the polarisation, with a control signal flat, not every such curve was filed as active; inconclusive means small, poorly fitted or top-dose-only effect, or effect the other way, or a change in a side signal; inactive means no such curve, though single readings can be large or run the other way; the % refers to the polarisation; further: potency means the concentration at half of the fitted maximal effect; % of control where 0% means no effect; many of its hits are not listed in these tables
# PTAP TSG101 blk: qHTS Assay for Iinhibitors of HIV-1 Budding by Blocking the Interaction of PTAP/TSG101; Tumor susceptibility gene 101 protein (Homo sapiens), Q99816; Fluorescence polarization, FITC-PTAP peptide / Tsg101 binding; Potency, µM (doses to about 115 µM), for inactives: at the highest dose activity change, negative = inhibition, actives largely listed as inhibitors; 340,000 tested, under 10 active; active means well fitted inhibition curve with a large enough effect in the main read-out, with a control signal flat, not every such curve was filed as active; inconclusive means small, poorly fitted or top-dose-only effect, or effect the other way, or a change in a side signal; inactive means no such curve, though single readings can be large or run the other way; further: potency means the concentration at half of the fitted maximal effect; % of control where 0% means no effect
#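 Fluorescence anisotropy tracks displacement of a FITC-tagged PTAP peptide (50 nM) from the Tsg101 binding domain (10 uM), following a 20 min room-temperature incubation at pH 7.5.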
# S-ASM inh: Inhibitors of Secretory Acid Sphingomyelinase (S-ASM): qHTS; Sphingomyelin phosphodiesterase (Homo sapiens), P17405; placental ASM, HMU-PC fluorogenic substrate, 60 min; Potency, µM (top dose mostly 57.5 µM), inactives show top-dose activity change, negative = inhibition, actives largely listed as inhibitors; actives 0.006% (n = 340,000); AID 504937, 2011; further: potency means the concentration at half of the fitted maximal effect
# Target sequence (P17405 47-631 limits assumed): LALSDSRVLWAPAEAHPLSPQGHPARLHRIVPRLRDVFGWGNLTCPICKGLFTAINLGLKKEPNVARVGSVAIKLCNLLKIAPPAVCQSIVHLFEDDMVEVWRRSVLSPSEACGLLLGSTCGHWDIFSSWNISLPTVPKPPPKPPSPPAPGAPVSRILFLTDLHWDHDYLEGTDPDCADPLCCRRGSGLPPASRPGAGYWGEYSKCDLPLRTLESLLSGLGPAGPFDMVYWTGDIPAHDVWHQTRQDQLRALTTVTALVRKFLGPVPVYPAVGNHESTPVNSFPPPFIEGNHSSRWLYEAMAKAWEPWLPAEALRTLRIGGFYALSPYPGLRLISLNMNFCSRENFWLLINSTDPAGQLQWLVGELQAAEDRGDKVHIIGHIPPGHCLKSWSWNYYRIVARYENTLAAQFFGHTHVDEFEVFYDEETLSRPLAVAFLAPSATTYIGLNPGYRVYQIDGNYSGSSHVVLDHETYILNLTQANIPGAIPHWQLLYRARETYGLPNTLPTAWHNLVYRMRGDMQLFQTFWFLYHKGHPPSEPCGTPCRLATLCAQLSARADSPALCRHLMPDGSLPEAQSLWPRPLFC
#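 Fluorogenic HMU-PC substrate (9 uM final) is turned over by placental ASM in 60 min at 37 C after a 10 min compound preincubation. Reaction ended by alkaline stop (pH 10), with fluorescence read at 386/447 nm.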
# a7 integrin act: qHTS for Activators of Integrin-Mediated Alleviation for Muscular Dystrophy; alpha7betagal myoblasts, beta-gal FDG fluorescence, 48 h; AID 624291, 2012; Potency, µM (highest dose often 38.3 µM), inactives show top-dose activation, most hits filed as activators; actives 0.064% (n = 350,000);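 further: potency means the concentration at half of the fitted maximal effect; 100% = response of the positive control SU9516; nearly all actives have a fitted effect of over 60% in size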
#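 alpha7betagal+/- myoblasts (passage 13, 250/well) treated 48 h at 37C with compounds at 1:260 dilution of DMSO stock. Lysed, then beta-galactosidase activity read as FDG fluorescence (ex 480/em 540) after 30 min, with pre-read for autofluorescence.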
# Chronic BCR inh: qHTS Assay to Find Inhibitors of Chronic Active B-Cell Receptor Signaling. ABC-DLBCL IkBa-CBG/CBR reporter, luminescence ratio, 4 h. Potency, µM (top dose mostly 46.1 µM), for inactives: top-dose ratio change, negative = lower green/red ratio, most hits filed as inhibitors. actives 0.05% (n = 340,000); active means well fitted inhibition curve with a large enough effect in the signal ratio, with a control signal flat, not every such curve was filed as active; inconclusive means small, poorly fitted or top-dose-only effect, or effect the other way, or a change in a side signal; the % refers to the signal ratio;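 further: potency means the concentration at half of the fitted maximal effect; plate controls were basal doxycycline-induced cells for no effect and cells given 10 µM MG132 for full effect; MG132 reads +100%, hits lower the ratio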
#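 TMD8 ABC-DLBCL cells carrying doxycycline-inducible green luciferase fused to IkappaBalpha plus unfused red luciferase were exposed to compounds (up to 46 uM) for 4 hrs at 37C. Activity came from the overlap-corrected green/red luminescence ratio.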
# Tb PFK inh: qHTS Assay to Find Inhibitors of T. brucei phosphofructokinase; AID 485367, 2010; actives 0.17% (n = 330,000); Potency, µM (highest dose often 57.5 µM), without a hit: top-dose activity, negative = inhibition, actives largely listed as inhibitors; T. brucei PFK, ADP-Glo luminescence;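 further: potency means the concentration at half of the fitted maximal effect; 0% = uninhibited 1x PFK enzyme wells and -100% = no-enzyme wells; nearly all actives have a fitted effect of over 60% in size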
#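 ADP-Glo luminescence quantified ADP after 45 min at room temperature, with 1.25 nM T. brucei PFK, 0.1 mM ATP and 0.5 mM fructose-6-phosphate in pH 8.0 TEA buffer. qHTS titrations up to 57 µM; curves classified by quality.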
# B2AR arrestin: qHTS assay of beta-arrestin-biased ligands of beta2-adrenergic receptor | Beta-2 adrenergic receptor (Homo sapiens), P07550 | beta-arrestin recruitment to beta2AR, cell-based reporter | Potency, µM (titrated, usually from 46.1 µM), for inactives: at the top dose activation, actives largely listed as activators | actives 0.02% (n = 330,000) | AID 492947, 2010;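 further: potency means the concentration at half of the fitted maximal effect; 0% = DMSO controls and full agonism = EC100 isoproterenol or metaproterenol; nearly all actives have a fitted effect of over 65% in size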
# Target sequence (P07550 whole entry, looked up): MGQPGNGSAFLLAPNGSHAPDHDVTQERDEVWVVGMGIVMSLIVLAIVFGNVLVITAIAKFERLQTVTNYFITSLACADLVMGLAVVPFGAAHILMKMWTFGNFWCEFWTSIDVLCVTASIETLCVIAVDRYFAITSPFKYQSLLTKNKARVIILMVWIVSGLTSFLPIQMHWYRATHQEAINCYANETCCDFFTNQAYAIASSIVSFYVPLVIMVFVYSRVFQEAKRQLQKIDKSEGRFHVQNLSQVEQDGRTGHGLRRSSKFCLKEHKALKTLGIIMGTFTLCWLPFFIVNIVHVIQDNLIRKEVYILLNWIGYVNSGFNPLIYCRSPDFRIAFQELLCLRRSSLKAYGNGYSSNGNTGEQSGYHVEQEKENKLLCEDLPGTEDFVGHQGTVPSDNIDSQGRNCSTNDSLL
# Giardia killer: Small Molecules that selectively kill Giardia lamblia: qHTS. activity change, % at 7.66 µM, hits read low. Giardia lamblia trophozoite viability. actives 0.15% (n = 340,000); in the data active means activity change below about -80%; inconclusive means between about -30% and that limit;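 further: parasites exposed to compound for two days anaerobically before the ATP read; on the % scale 0 is the no-effect control and ±100 the full control effect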
#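 Trophozoites 100 cells/well + cpd; 48 hrs, 37 deg C, anaerobic. ATPLite 1-Step added, 15-30 min RT, luminescence read (ATP-based viability).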
# Coupling enz: qHTS Assay for Inhibitors of Fructose-1,6-bisphosphate Aldolase from Giardia Lamblia: Coupling assay counterscreen | actives 0.67% (n = 290,000) | coupling enzyme system counterscreen, AmpLite Red fluorescence | activity change, negative = inhibition, % at 58.2 µM, hits read low; in the data active means activity change below about -30%; further: on the % scale 0 is the no-effect control and ±100 the full control effect
#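 Counterscreen lacking aldolase: glyceraldehyde-3-phosphate coupling-enzyme reagent preincubated 10 min at RT with compound (at 57.5 uM final), then substrate/coupling system with AmpLite Red added; fluorescence read at 525/598 nm after 20 min RT.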
# * marks the source's active call; other numbers are inactive results; i = inactive; ? = inconclusive; . = no result given; [ ] = another dose, or the depositor's remark. Unless noted, the call rests on the fitted dose curve; in most records, active means well fitted curve in the direction sought with a large enough effect; inconclusive means small, poorly fitted or top-dose-only effect, or another doubt; inactive means no such curve, though single readings can be large; an effect the other way counts as inactive or inconclusive. Only part of the results is shown. The share of hits here may be higher or lower than overall.
molecule,GALK inh,Menin MLL FP TR,PTAP TSG101 blk,S-ASM inh,a7 integrin act,Chronic BCR inh,Tb PFK inh,B2AR arrestin,Giardia killer,Coupling enz
Cc1ccc(N2CC(O)=C(c3nc4ccccc4c(=O)[nH]3)C2=N)cc1C,2%,1%,1%,1%,19%,-15%,6%,0.8%,13,-2
O=C(N/N=C/c1ccc(Br)s1)c1c[nH]c2ccccc12,1%,?,-13%,-8%,-2%,?,-3%,-1.4%,-12,2
CN(C)/C=C(\C#N)S(=O)(=O)C(C)(C)C,0%,-6%,-6%,-2%,3%,-10%,2%,0.0%,8,2
Cc1ccccc1NC(=O)c1c(C)cc(=O)oc1C,-3%,19%,-2%,-5%,4%,2%,1%,0.0%,-8,3
COc1ccc(-c2c[n+]3c(n2-c2ccccc2)SCC3)cc1,-1%,.,-1%,-1%,?,-7%,2%,-0.6%,-8,0
COc1cccc(-c2nc(CS(=O)(=O)CC(=O)NCC(C)c3ccccc3)c(C)o2)c1 (stereo not drawn),1%,0%,3%,-6%,-46%[inhibitor],3%,2%,-0.6%,-20,12
COc1ccc(NC(=O)NC(C)C2CC3CCC2C3)cc1 (stereo not drawn),-2%,-18%,-2%,-1%,18%,-6%,3%,0.6%,12,-5
O=C(Nc1ncccn1)c1ccc([N+](=O)[O-])o1,1%,5%,-3%,i,-24%,-1%,0%,-0.9%,-93*,-13
CCCNC(=O)c1ccccc1N1CCN(CCCCN2C(=O)C3CCCCN3C2=O)CC1 (stereo not drawn),-5%,5%,-10%,-2%,12%,0%,2%,-0.4%,6,-2
CC(C)(O)C#Cc1ccc(CN2CCN(C3CCCC3)C(CCO)C2)cc1 (stereo not drawn),4%,2%,1%,-2%,?,8%,-13%,0.2%,-15,8
O=C(Nc1ccc2c(c1)OCCO2)c1cnccn1,2%,3%,-5%,1%,19%,?,-6%,-0.9%,-19,5
COc1ccc(CCSc2nnc(C3CCCCC3)n2N)cc1,-1%,-12%,-13%,-1%,5%,?,3%,-0.4%,11,2
N=C1C(=O)OCC1c1ccccc1NC(=O)CN1CCOCC1 (stereo not drawn),1%,8%,1%,3%,24%,2%,-6%,0.1%,8,1
CCc1c(C(C)O)oc2ccc3c(C)cc(=O)oc3c12 (stereo not drawn),.,-5%,.,.,.,?,0%,0.1%,.,0
Cc1ccc(/C=N/N2CCN(Cc3ccc(C)cc3)CC2)cc1,1%,.,0%,0%,1%,0%,4%,-0.2%,22,0
Cc1cccc(N2CC(C(=O)Nc3ccc(S(=O)(=O)N4CCOCC4)cc3)CC2=O)c1 (stereo not drawn),2%,12%,-3%,0%,17%,3%,-9%,0.0%,-7,0
CCOC(=O)C(NCc1ccco1)(NC(=O)c1ccc(OC)cc1)C(F)(F)F (stereo not drawn),-1%,.,-5%,1%,-1%,?,-6%,-0.5%,-5,-2
COc1ccc(OC)c(/C=N/Nc2cc(C)nc(N3CCOCC3)n2)c1,-1%,.,-1%,38%[activator],-18%,-8%,2%,-0.1%,2,-1
Cc1ccc2nc3sc(C(=O)Nc4c(C)[nH]c(=O)[nH]c4=O)c(N)c3cc2c1,.,?,?,18%,-5%,8%,-2%,-0.1%,-7,0
CC(C)[C@H]1C(=O)Nc2ccccc2N1C(=O)N[C@@H](Cc1ccccc1)C(=O)N[C@H](C(=O)O)c1ccccc1,.,8%,2%,2%,15%,1%,-2%,14%,-5,5
CC(C)CN(C(=O)COC(=O)c1ccc([N+](=O)[O-])o1)C1CCS(=O)(=O)C1 (stereo not drawn),-2%,-3%,-2%,3%,-15%,-9%,-4%,-0.8%,-24,-6
CCc1c(C)nc2c(-c3ccccc3OC)c(C)[nH]n2c1=O,9%,-6%,-3%,0%,-19%,0%,-3%,-1.1%,-29,-13
Cc1ccc(NC(=S)Nc2cccc(S(=O)(=O)Nc3c(C)n(C)n(-c4ccccc4)c3=O)c2)cc1,-1%,12%,-2%,-1%,-11%,6%,0%,-0.9%,5,3
COc1ccc(NC(=O)COC(=O)Cc2c[nH]c3ccccc23)cc1OC,13%,4%,-1%,-1%,-14%,5%,-2%,0.1%,35[activator],-1
COC(=O)c1ccc(C(NC(=O)OCc2ccccc2)/C(C)=C/[C@@H](C)C(=O)NCc2cc(C)on2)cc1 (stereo partly drawn),.,-1%,.,.,.,.,.,.,.,5
COCCCNC(=S)Nc1ccc(S(=O)(=O)Nc2cc(OC)nc(OC)n2)cc1,-4%,9%,1%,0%,?,-2%,0%,0.4%,8,1
O=S(=O)(Nc1ccc2c(c1)OCCO2)c1cccc(F)c1,-2%,2%,-4%,-2%,-13%,-4%,3%,-0.1%,-15,0
CC(=O)N/C(=C\c1ccccc1)C(=O)OCC(=O)NC(C)C12CC3CC(CC(C3)C1)C2 (stereo not drawn),-1%,-13%,-1%,-3%,-31%[inhibitor],16%,0%,-0.7%,6,-3
C=C(C)C1CC=C(C)/C(=N\NC(=O)CCc2ccccc2)C1 (stereo not drawn),3%,-11%,-9%,4%,5%,?,-7%,-0.9%,-6,-12
CCc1ccc(N2C(=O)c3cc(N4CCOCC4)c([N+](=O)[O-])cc3C2=O)cc1,0%,7%,.,.,.,0%,1%,0.3%,.,0

# 2 neighbouring records already listed, quoted:
molecule,GALK inh,Menin MLL FP TR,PTAP TSG101 blk,S-ASM inh,a7 integrin act,Chronic BCR inh,Tb PFK inh,B2AR arrestin,Giardia killer,Coupling enz
Cc1ccc(N2CC(O)=C(c3nc4ccccc4c(=O)[nH]3)C2=N)cc1C,2%,1%,1%,1%,19%,-15%,6%,0.8%,13,-2
O=C(N/N=C/c1ccc(Br)s1)c1c[nH]c2ccccc12,1%,?,-13%,-8%,-2%,?,-3%,-1.4%,-12,2

# Later entries.
molecule,GALK inh,Menin MLL FP TR,PTAP TSG101 blk,S-ASM inh,a7 integrin act,Chronic BCR inh,Tb PFK inh,B2AR arrestin,Giardia killer,Coupling enz
COc1ccc(/C(C)=N/NC(=O)CNC(=O)Cc2ccccc2)c(OC)c1,6%,.,-7%,-1%,?,-4%,-6%,2.4%,?,0
Cc1nc(-c2ccccc2)nc(Cl)c1Cl,-1%,6%,-7%,0%,26%,-1%,1%,0.0%,7,-1
O=C(COc1ncnc2ccccc12)Nc1cccc([N+](=O)[O-])c1,-1%,16%,-1%,2%,-33%,-1%,0%,0.0%,-10,-3
O=C(NC(Cc1ccccc1)C(=O)O)/C(=C/c1ccc([N+](=O)[O-])cc1)NC(=O)c1ccc(Br)o1 (stereo not drawn),10%,27%,-3%,-1%,19%,1%,0%,-1.2%,-3,9
CN(C)C(=O)c1cccn1-c1ncc(C(F)(F)F)cc1Cl,-1%,0%,-5%,-2%,7%,-3%,0%,-0.1%,-16,0
COC(=O)C1=C(C)N(c2ccc(OC)cc2)C(C)=C(C(=O)OC)C1c1ccccc1,-2%,.,-2%,-1%,0%,9%,0%,-0.9%,35[activator],-4
Cc1cccc(C(=O)OCC(=O)c2cccc(Br)c2)c1O,0%,.,-7%,-3%,?,2%,-4%,-0.5%,-3,.
O=C(Nc1ccc(Br)cc1)N1CCCCCC1,3%,0%,-1%,1%,14%,0%,?,0.0%,-19,0
Cc1ccc(OCC(=O)OC2CCCN(C)C2)cc1 (stereo not drawn),3%,-4%,-3%,10%,?,1%,0%,0.2%,11,6
COc1ccc(NC(=O)OC(CN2CCCCC2)C(F)(F)F)cc1 (stereo not drawn),6%,40%[activator],0%,1%,?,6%,1%,0.2%,-27,-5
COC(=O)C(C)(C(=O)OC)c1ccccc1[N+](=O)[O-],0%,-10%,-8%,-2%,1%,14%,6%,-0.3%,5,5
Cc1ccc2[nH]cc(C(=O)CCl)c2c1,-4%,-18%,0%,2%,-36%,?,0%,-1.7%,19,4
O=C(N/N=C/C(Cl)=C/c1ccccc1)c1ccncc1,7%,0%,-2%,-3%,9%,?,1%,-1.0%,-12,3
O=C(NCc1cn(-c2ccccc2)nc1-c1ccccc1)c1cccc([N+](=O)[O-])c1,.,?,-2%,-5%,-5%,2%,10%,-1.2%,0,0
Cc1ccc(NS(=O)(=O)c2sc3ccc(Cl)cc3c2C)cc1,-1%,.,-1%,-25%,-34%,?,0%,-0.8%,-5,0
